HepG2 = HepG2 cell cytotoxicity, dose response, cytotoxicity control, ATP luminescence, cherry-pick, activator set 2 (AID 1053143) | HepG2 viability, CellTiter-Glo ATP luminescence, 72 h | activity change, negative = cytotoxicity, % at the top dose, mostly 26 µM; hits show AC50 in µM | 3.7% of 3,400 active;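 active means fitted AC50 at most twice the highest valid dose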;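 further: 0 = neutral control and -100 = positive control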
Numbers without * were called inactive; [ ] = dose if it differs, or a comment.

SMILES	HepG2
CCCOc1ccc(C(=O)Nc2ccc3c(c2)OCO3)cc1	-21.2%
CC(C)CNC(=O)c1cc(-c2ccc3c(c2)OCO3)on1	-4.8%
CC1CCN(C(=O)CN2C(=O)c3ccccc3S2(=O)=O)CC1	-18.0%
CCn1c(COc2ccc(OC)cc2)nc2ccccc21	-18.0%
CC(C)Oc1ccc(C(=O)NCCCNC(=O)c2cccnc2)cc1	21.6%
O=C(NCC1CC1)c1ccc2c3n(nc2c1)-c1ccccc1CO3	26µM*
Cc1noc(C)c1COc1ccccc1C(=O)N(C)Cc1ccco1	-14.4%
O=c1oc(CCCO)cc2ccc(/C=C/c3cccc([N+](=O)[O-])c3)cc12	9.2%
Cc1nc2ccc(-c3nc4cc(N)ccc4o3)cc2[nH]1	7.4%[12 µM]
COc1ccc(C(=O)Nc2cc(C)on2)cc1	-10.1%
Cc1ccc(-c2nnc(-c3cc(C)on3)o2)cc1	-1.4%
COc1ccc(C(=O)C=Cc2cccs2)c(O)c1	-22.3%
CCC(C)C(=O)Nc1nc2ccc(OC)cc2s1 (stereo unspecified)	-8.1%
O=C(Nc1ccc(CN2CCOCC2)cc1)c1ccccc1F	-6.1%
O=C1CC(c2ccco2)CC2=C1C=Nc1ccccc1N2 (stereo unspecified)	11.4%
O=C(/C=C/c1cc2ccccc2o1)c1ccccc1O	-19.6%
CCc1noc(C)c1C(=O)NNC(=O)COc1ccccc1C	-8.5%
O=C(Nc1nc2ccc([N+](=O)[O-])cc2s1)c1ccncc1	-6.7%
COc1cccc2oc3ccc(C#Cc4ccccn4)cc3c(=O)c12	16.4µM*
CC(C)(C)NC(=O)C(c1cc2ccccc2o1)n1c(-c2ccc(-c3ccccc3)cc2)nc2ccccc21 (stereo unspecified)	-18.7%
Cc1cn2c(N)c(/C=C3\C=Nc4ccccc43)c(=O)nc2s1	0.0%
CC(C)(C)C1CCC(=O)N(CCSc2ccccc2)CC1 (stereo unspecified)	-14.2%
O=C(c1cc(-c2cccc(O)c2)on1)N1CCCCC1	9.9%
O=C(NCC(=O)N1CCCCC1)c1sc2ccccc2c1Cl	-3.3%
CCOC(=O)c1c(C)oc2c1c(C(c1ccccc1)N1CCOCC1)c(O)c1ccccc12 (stereo unspecified)	2.7%
COc1ccc2c(c1)CC/C(=C\C=C\c1ccccc1)C2=O	-16.4%
Cc1ccc(NC(=O)c2ccc3c(=O)n4c(nc3c2)CCC4)cc1F	-11.8%
COc1ccc2nc(SCC(=O)c3ccco3)[nH]c2c1	2.3%
CCc1ccc(NC2=CC(=O)C(=O)c3ccccc32)cc1	6.77µM*
CN1C(=O)S/C(=C/c2ccc(OCc3cccc(C(=O)O)c3)cc2)C1=O	20.7%

Exported comma-delimited: entries from further up.
compound,HepG2
O=C1CC(c2ccco2)CC2=C1C=Nc1ccccc1N2 (stereo unspecified),11.4%
O=C(/C=C/c1cc2ccccc2o1)c1ccccc1O,-19.6%
CCc1noc(C)c1C(=O)NNC(=O)COc1ccccc1C,-8.5%
O=C(Nc1nc2ccc([N+](=O)[O-])cc2s1)c1ccncc1,-6.7%
COc1cccc2oc3ccc(C#Cc4ccccn4)cc3c(=O)c12,16.4µM*
CC(C)(C)NC(=O)C(c1cc2ccccc2o1)n1c(-c2ccc(-c3ccccc3)cc2)nc2ccccc21 (stereo unspecified),-18.7%
Cc1cn2c(N)c(/C=C3\C=Nc4ccccc43)c(=O)nc2s1,0.0%
CC(C)(C)C1CCC(=O)N(CCSc2ccccc2)CC1 (stereo unspecified),-14.2%
O=C(c1cc(-c2cccc(O)c2)on1)N1CCCCC1,9.9%
O=C(NCC(=O)N1CCCCC1)c1sc2ccccc2c1Cl,-3.3%
CCOC(=O)c1c(C)oc2c1c(C(c1ccccc1)N1CCOCC1)c(O)c1ccccc12 (stereo unspecified),2.7%
COc1ccc2c(c1)CC/C(=C\C=C\c1ccccc1)C2=O,-16.4%
Cc1ccc(NC(=O)c2ccc3c(=O)n4c(nc3c2)CCC4)cc1F,-11.8%

(list continues)
SMILES	HepG2
Cc1ccc(COc2ccc3c(c2)OCO3)cc1	-3.6%
CC(=O)Oc1ccc(Oc2ccc(-c3noc(C)n3)cc2)cc1	-9.5%
Cc1ccc(S(=O)(=O)C(NC(=O)c2ccccc2)=C(Cl)Cl)cc1	-5.1%
Cn1c(=O)c2c(ncn2CC(=O)OCC(=O)NCc2ccccc2Cl)n(C)c1=O	3.4%
COc1cccc(-c2nnc(-c3ccc4ccccc4c3)o2)c1	-4.7%
CCN(CC)c1ccc(NC(=O)c2cccnc2)cc1	-2.8%
COc1ccc(C(=O)CSc2ccccc2C(=O)O)cc1	-7.5%
COc1ccccc1CCC(=O)Nc1nc2ccccc2[nH]1	-5.0%
O=C(/C=N/NC(=O)c1ccc(Cl)cc1Cl)c1ccccc1	-19.4%
C(=N\Nc1nncc2ccccc12)/c1ccccc1	-15.7%
O=C1c2cccc3c(N4CCCCC4)ccc(c23)C(=O)N1CCO	-5.3%
CC(/C=N/Nc1nc2ccccc2[nH]1)=C\c1ccccc1	-7.4%
O=C(Nc1ccc2c(c1)OCO2)c1noc2c1CCCC2	-8.0%
COc1ccc(NC(=O)COC(=O)C23CC4CC(CC(O)(C4)C2)C3)cc1Cl	-10.3%
Cc1ccc(-c2nc(-c3ccncc3)no2)cc1	-18.2%
COc1cc(OC)cc(-c2cc3cc(F)ccc3cn2)c1	-22.6%
COc1ccc(C(=O)O/N=C(\N)c2ccc(Br)cc2)cc1	9.2%
CN(c1cccc(NC(=O)COc2ccc(Cl)cc2Cl)c1)S(C)(=O)=O	4.3%
c1ccc2c(c1)oc1c(Nc3ccc4c(c3)OCO4)ncnc12	9.8%
CCOC(=O)c1sc(NC(=O)C2CCC2)cc1C	-22.4%
COc1ccc(-c2cc3ccc(OCC(C)=O)cc3oc2=O)cc1	-2.0%[12 µM]
CCN(CC)c1ccc(NC(=O)COC(=O)c2ccc3ccccc3n2)cc1	10.2%
Cc1cccc(C#Cc2ccccc2)n1	-3.1%
C(=Cc1c[nH]c2ccccc12)c1nccc2ccccc12	2.3%
O=c1c2c3c(sc2nc2n1CCCCC2)CCCC3	7.6%[12 µM]
Clc1cc2nc(-c3cccnc3Cl)[nH]c2cc1Cl	-2.5%
O/C(=C\c1ccc2ccccc2n1)c1ccc(O)cc1O	-13.8%
Nc1nc(N)nc(-c2cccc(Br)c2)n1	-11.3%
CCS(=O)(=O)c1ccc2oc(Nc3ccccc3Br)nc2c1	-31.4%
COc1cc(CNc2ccc3[nH]c(=O)[nH]c3c2)ccc1OCc1ccc(C)cc1	-7.9%
CCC(=O)Nc1cccc(-c2nc3ccc(C)cc3o2)c1	-6.4%
COc1cccc2cc(-c3nc(-c4cccs4)cs3)c(=O)oc12	0.8%
Clc1ccccc1-c1ncc2ccccn12	-3.7%
CCOC(=O)Nc1ccc(Oc2ccccc2)cc1	4.2%
Brc1ccccc1-c1nnc(CSc2nncn2-c2ccccc2)o1	-14.5%
COc1ccc(CNC(=O)CCCn2nc(C)c([N+](=O)[O-])c2C)cc1OC	-0.5%
CCNc1nc(-c2cc3ccccc3o2)cs1	-8.3%
C/C(=N\O)c1ccc(N2C(=O)C3CC=C(Cl)CC3C2=O)cc1 (stereo unspecified)	-0.5%
CCc1ccc2cc3c(cc2n1)C(=O)c1ccccc1-3	-15.3%
CC#CCOCC1CNC(=O)O1 (stereo unspecified)	3.0%
CCOC(=O)c1cccc(NC(=O)c2ccc(F)cc2F)c1	-13.7%
CC(=O)c1cccc(NC(=O)c2noc3c2CCc2ccccc2-3)c1	-0.4%
Cc1ccc2nc(-c3ccc(NC(=O)COCC(=O)O)cc3)sc2c1	0.9%[12 µM]
O=C(CN1CCN(Cc2ccc(Cl)cc2)CC1)N/N=C/c1cccc(F)c1	-12.3%
Cc1ccc(/C=N/Nc2nc3ccccc3[nH]2)s1	-17.2%
COC(=O)c1c(C)[nH]c(C(=O)C(C)OC(=O)C2CC(=O)N(CCc3ccccc3)C2)c1C (stereo unspecified)	-15.5%
Cn1ccnc1SCC(=O)c1ccc2ccccc2c1	26.4%
CCOC(=O)c1sc2nc(-c3cccnc3)ccc2c1N	-25.4%
O=C1c2ccccc2C(=O)C1c1ccc(O)cc1	-4.7%
CCOC(=O)CSc1nc2cc(OC)ccc2cc1C#N	-12.9%
Cc1ccc(/C=N/NC(=O)c2cccs2)cc1[N+](=O)[O-]	0.2%[12 µM]
COc1ccc(/C=C/C(=O)C2C(=O)C=C(C)OC2=O)cc1O (stereo unspecified)	-6.1%
COc1ccc(NC(=O)Nc2nnc(-c3ccco3)s2)cc1	-12.8%
Cc1cccc(OCCCC(=O)Nc2ccc(S(N)(=O)=O)cc2)c1	-6.9%
Cc1cc(C)n(CCC(=O)N/N=C/c2ccc(Br)c([N+](=O)[O-])c2)n1	3.1%
O=C(NCCc1ccccc1)c1cnc2ccccc2n1	-8.6%
CC(=O)NCCc1ccc(C(=O)COC(=O)c2cc(C)oc2C)cc1	-18.0%
O=C(NCCc1ccccc1)c1cccnc1	-18.5%
C/C(=N\NC(=O)c1ccc2c(c1)OCCO2)c1ccccc1	-6.2%
COc1ccc(C(=O)Cn2nnc(-c3cccs3)n2)cc1	-0.4%
(listing goes on)
SMILES	HepG2
CN1CCN(/N=C/c2nc(-c3ccc(Cl)cc3)n3ccccc23)CC1	8.3%
CC1CC(=O)Nc2ccccc2N1C(=O)Nc1ccc(F)cc1 (stereo unspecified)	14.1%
O=C(/C=C1\OCc2ccccc21)c1ccccc1	2.6%
CCOC(=O)C(C)N1C(=O)S/C(=C/c2cc(C)n(-c3ccccn3)c2C)C1=O (stereo unspecified)	-5.4%
COc1cc(/C=N/NC(=O)c2cccnc2)ccc1OC(=O)c1ccc2c(c1)OCO2	-11.7%
Cc1nn(-c2ccc(Br)cc2)c(=O)c2ccccc12	-6.9%
Cc1csc(NC(=O)c2cc3c(s2)-c2ccccc2OC3)n1	-11.9%
Clc1ccccc1/C=C/c1nc(-c2cccnc2)no1	0.6%
NC(=O)c1ccc(NC(=O)C#Cc2ccccc2)cc1	26µM*
O=c1c(N=Nc2ccccc2)c[nH]n1-c1ccccc1	-21.2%
O=C1S/C(=C\c2cccs2)C(=O)N1c1ccc(O)cc1	-6.6%
COc1cc(SC)ccc1C(=O)Nc1ccc(C)cc1	2.9%
O=C(c1ccc(F)cc1)N1CCC(c2ccccc2)C1 (stereo unspecified)	-6.5%
CCOC(=O)c1c(C)[nH]c(C(=O)OCC(=O)c2ccccc2)c1C	-18.3%
O=C(Oc1ccc(-c2cnc3ccccc3n2)cc1)c1ccc(Br)o1	-19.5%
COc1cc2ccccc2cc1C(=O)Nc1ccc(O)cc1	-6.3%
Cc1ccc(C)c(S(=O)(=O)N(C(=O)c2ccncc2)c2ccc(OC(=O)c3ccncc3)cc2)c1	-3.8%
Cc1cc(C)cc(NC(=O)CCn2cnc3cc(C)c(C)cc32)c1	-15.5%[12 µM]
Cc1ccc(OCCSc2ncccn2)c(C)c1	-12.2%
Cc1ccc(C(=O)c2c(NC(=O)c3ccncc3)sc3c2CCCC3)cc1	2.8%
O=C(NCCC1=CCCCC1)c1ccc(-n2cncn2)cc1	-10.9%
Cc1ccc(/C=C2\Sc3ccccc3C2=O)s1	-6.0%
CSc1cccc(CNC(=O)C2CCC(=O)N(CCc3ccccc3)C2)c1 (stereo unspecified)	7.7%
O=C(NCCN1CCOCC1)c1cc(-c2ccccc2)on1	-28.6%
C(=N\Nc1nc2ccccc2[nH]1)/c1ccc2c(c1)OCCO2	-13.2%[12 µM]
Cc1scc(C(=O)N/N=C/c2ccc(Cl)s2)c1C	-1.2%
COc1ccc(NC(=O)c2cccc(OS(=O)(=O)N(C)C)c2)cc1	-19.7%
CN(C(=O)/C=C/c1ccccc1)C1CCCCC1	2.4%
Cc1ccsc1/C=N/Nc1nc2ccccc2s1	-11.7%
Cc1ccsc1/C=C1\CCC(C2CCCC2)C1=O (stereo unspecified)	-11.3%
CCn1c(O)c(C#N)c(C)cc1=O	20.8%
COc1ccc(-c2cc3nc[nH]c(=O)c3s2)cc1	-11.5%
Fc1ccccc1CSc1nnc(-c2ccccc2)o1	-7.1%
COc1cc(Cl)ccc1OCc1cc(C(=O)NC(C)Cc2cnccn2)no1 (stereo unspecified)	-13.1%
CCn1cnc2cc(NCc3ccc(Cl)cc3)ccc21	-25.7%
CCCCNC(=O)C1CC(c2cccc([N+](=O)[O-])c2)=NO1 (stereo unspecified)	7.4%
Cc1nc2ccc(NC(=O)Cc3cccs3)cc2s1	-8.7%
Fc1cccc(-c2ncc(-c3ccccc3)o2)c1	-8.7%
O=C(c1ccc2c3n(nc2c1)-c1ccc(Cl)cc1CO3)N1CCCCC1	26µM*
Cc1ccc(OCC(=O)Nc2ccccc2C(N)=O)cc1	-9.9%
CCc1ccc(/C=N/Nc2ncnc3nc[nH]c23)cc1	-14.5%
CSc1nnc2c(n1)c(C)nn2-c1cccc(C)c1	-1.4%
Clc1ccc(-c2cc3ccccc3[nH]2)cc1	-17.2%
Cc1nc(NC(=O)c2ccc3c(c2)OCCO3)ccc1Br	-15.7%
Cc1nc2nc(-c3cccs3)[nH]c2cc1Br	26µM*
Cn1c(-c2ccc([N+](=O)[O-])cc2)nc2ccccc21	-8.3%
CCCC(=O)Nc1ccc2oc(-c3cccnc3)nc2c1	-9.2%
Fc1ccc(N2CCN(c3cnc4ccccc4n3)CC2)cc1	12.0%[12 µM]
O=C(Nc1ccc(NC(=O)c2ccco2)nc1)c1cccc(F)c1	3.9%
COC(=O)CNc1c(-c2ccccn2)nc2ccc(Br)cn12	-14.0%
Cc1cc(C(=O)CN2C(=O)C3CC=CCC3C2=O)c(C)n1-c1ccccc1 (stereo unspecified)	-10.3%
CC(C)(C)NC(=O)c1cccc(NC(=O)c2cccc(O)c2)c1	-7.0%
Cc1ncoc1C(=O)Nc1ncc([N+](=O)[O-])s1	26µM*
O=[N+]([O-])c1ccc(O)c(C=Nc2ccc3c(c2)OCO3)c1	-13.4%
COc1ccc(Nc2nc(N)nc(CSc3nccn3C)n2)cc1	-1.4%
Cc1nc2ccc(NC(=O)Cc3c(F)cccc3Cl)cc2s1	2.0%
CC(C)C[C@@H](CSc1ccccc1)N1CCN(CC(C)C)CCC1=O	-20.5%[12 µM]
Cc1cc2cc(CCNC(=O)c3cccs3)c(=O)[nH]c2cc1C	26µM*
O=C1c2ccccc2C(Nc2ccccc2)N1c1ccc(Cl)cn1 (stereo unspecified)	6.3%

A portion of the library; rates above refer to the full screens.
